# Kir21 inh – blocks the mouse Kir2.1 inward-rectifier potassium channel | 310,000 compounds, 0.85% hits | B-score at 10 µM | HEK293-Kir2.1, FluxOR thallium flux fluorescence; stronger effect = lower value;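 active means fluorescence ratio B-score at or below minus 3 SD of library scores, with starting-brightness B-score within 2 SD, cut at about -4.2 in these data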;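 further: channel flux triggered by added potassium and thallium sulfate stimulus; B-score of peak minus minimum fluorescence over baseline after thallium stimulus; more negative B-score means stronger Kir2.1 block with less thallium influx; some compounds called inactive have numbers as strong as hits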
# Target sequence (P35561 whole entry, looked up): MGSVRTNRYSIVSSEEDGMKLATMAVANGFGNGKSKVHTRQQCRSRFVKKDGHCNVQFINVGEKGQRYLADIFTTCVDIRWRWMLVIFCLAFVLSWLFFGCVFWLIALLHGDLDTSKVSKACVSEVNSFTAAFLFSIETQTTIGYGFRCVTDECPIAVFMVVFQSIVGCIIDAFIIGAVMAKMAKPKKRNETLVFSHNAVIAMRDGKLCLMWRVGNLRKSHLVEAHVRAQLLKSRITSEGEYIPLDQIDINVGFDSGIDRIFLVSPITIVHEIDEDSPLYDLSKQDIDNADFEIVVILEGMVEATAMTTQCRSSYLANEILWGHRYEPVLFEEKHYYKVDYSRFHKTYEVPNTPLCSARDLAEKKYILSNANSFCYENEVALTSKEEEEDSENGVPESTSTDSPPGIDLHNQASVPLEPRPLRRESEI
# An asterisk follows results filed as active.
SMILES,Kir21 inh
COc1ccc(C(=O)NCCCN2CCOCC2)cc1,-0.22
CCc1ccc(N2C(=O)Nc3ccc(Br)cc3C2(O)C(=O)NCCN(C)C)cc1 (stereo not given),0.22
C/C(=N\NC(=O)C1CC1(C)c1ccccc1)c1ccco1 (stereo not given),-2.77
Cc1noc(C)c1C(=O)Nc1sc2c(c1C(N)=O)CCC2,-1.33
COCCOC(=O)c1sc2nc[nH]c(=O)c2c1C,0.58
COc1ccc(-c2noc(CCc3ccccc3)n2)cc1,-1.06
COCCCNC(=O)C(=O)NCCCOC(C)C,-0.04
Fc1ccc(CNC(=S)NCc2ccc(F)cc2)cc1,-0.42
CCOC(=O)c1ccc(NC(=S)N2CCCC(C(=O)N3CCCC3)C2)cc1 (stereo not given),1.05
CCOC(=O)C1=C(C)NC2=C(C(=O)C(C(=O)OCC)C(c3cccc(OC)c3)C2)C1c1ccccn1 (stereo not given),-1.74
CCCCOC(=O)c1ccc(NC(=O)c2c(Cl)ccc(Cl)c2OC)cc1,0.13
O=C(CSc1nnnn1Cc1ccccc1)c1ccccc1,0.09
CN(c1ccc(O)cc1)c1nc(O)c(C2=c3ccccc3=NC2=O)s1,0.61
CCOC(=O)c1c(NC(=O)C2C3CCC(O3)C2C(=O)O)sc(C)c1-c1ccc(F)cc1 (stereo not given),2.4
CC(/C=C/c1ccccc1)=N/NC(=O)CNC(=O)c1ccccc1F,0.76
CSc1nc2ccccc2c(=O)n1N,0.37
C/C(=N/NC(=O)CNC(=O)c1ccccc1F)c1ccc2c(c1)CCCC2,3.3
CCOC(=O)C1CCN(C(=O)CCN2C(=O)C3C4C=CC(C4)C3C2=O)CC1 (stereo not given),-1.47
Cc1ccccc1N/C(=N/S(=O)(=O)c1ccccc1)c1ccc(F)cc1,-0.34
CCN1CCN(C(=O)CCN2C(=O)COc3ccc(C)cc32)CC1,-1.31
CCc1ccc(C(=O)N/N=C/c2ccc(Cl)cc2Cl)nc1,-0.75
O=C(COc1ccc(F)cc1)N/N=C/c1cccc2cccnc12,0.76
COc1ccc(-c2noc(N3CCC(C(=O)NCCCN4CCC(C)CC4)CC3)n2)cc1,-0.64
CCCCn1c(N)c(N(CCOC)C(=O)c2nn(CC)c(=O)c3ccccc23)c(=O)[nH]c1=O,1
CCN(C(=O)Cc1c(C(=O)O)n(CC)c2ccccc12)c1ccccc1C,1.4
# Remaining list, next part
SMILES,Kir21 inh
O=C(Nc1ccccc1)NC1CCS(=O)(=O)C1 (stereo not given),-0.29
O=C(NC(Cc1ccccc1)C(=O)O)OCc1ccccc1 (stereo not given),0.27
Cc1noc(C)c1S(=O)(=O)Nc1c(C)n(C)n(-c2ccccc2)c1=O,0.4
Cc1cc(C)c(N2C(=O)C3C4CC(=O)C(c5ccccc54)C3C2=O)c(C)c1 (stereo not given),2.49
Cc1ccc(C(=O)CNc2ccc(F)cc2)cc1,0.13
Cc1ccc(NC(=O)Cc2ncc(C(F)(F)F)cc2Cl)cc1Cl,-0.81
O=C1CCCC(=O)C1CS(=O)(=O)c1ccccc1,0.05
COc1cc(/C=C/C(=O)OCC(=O)NCc2ccco2)ccc1OCC#N,2.33
CC(C)c1nc2c(c(=O)n(C)c(=O)n2C)n1C,0.39
CCOC(=O)c1ccc(NC(=O)CSc2nnc(CNc3ccc(C)cc3)n2C)cc1,-0.45
CNC(=O)C1CCC(=O)N1Cc1ccccc1Cl (stereo not given),-0.28
CSCCCNC(=O)c1ccc(OC2CCN(C(=O)c3cccnc3)CC2)cc1,-1.41
CC(C)(C)NS(=O)(=O)c1ccc(CCC(=O)O)cc1,0.74
CN(C)/C=C1/C=C(c2ccccc2)OC1=O,-0.04
COc1cccc(N2CCN(C(=O)Cn3c(=O)oc4ccccc43)CC2)c1,0.02
O=S(=O)(c1cc(Cl)ccc1Br)N1CCOCC1,-0.11
CCOc1ccc(NC(=S)N2CCCN(Cc3cccc(Cl)c3)C2)cc1,1.08
O=C(CN1CCC(n2nnc3cc(F)ccc32)CC1)N1CCc2ccccc2C1,-0.53
CCC(=O)Nc1ccc(NC(=O)CCc2ccccc2)cn1,1.18
Cc1ccccc1S(=O)(=O)NCC1CCCO1 (stereo not given),0.66
O=C(NCCc1c[nH]c2ccccc12)C(=O)NCC(c1ccco1)N1CCN(c2ccccc2F)CC1 (stereo not given),-0.38
O=C(Oc1cccc(C(=S)N2CCOCC2)c1)c1cccc([N+](=O)[O-])c1,0.4
O=C(COC(=O)c1ccccn1)Nc1cccnc1Cl,-0.78
CCOCCCNC(=O)NC(=O)CN1CCN(S(=O)(=O)c2ccc3c(c2)OCCO3)CC1,-0.97
CCCC(=O)N(c1ccc(C(=O)O)cc1)c1nc(-c2ccccc2)c(C)s1,0.94
# (continued)
SMILES,Kir21 inh
CN(CC(=O)Nc1ccccc1Cl)C(=O)c1ccccc1Sc1ccccc1C#N,-0.07
CCCn1c(SCC(N)=O)nc2c(c1=O)C1(CCCC1)Cc1ccccc1-2,0.94
COc1ccccc1N1CCN(S(=O)(=O)c2ccccc2)CC1,0.64
COC(=O)CCCNC(=O)c1ccc2nc(Cc3ccc(OC)cc3)oc2c1,1.75
S=c1[nH]nc(-c2cccnc2)n1/N=C/c1ccco1,0.82
CC(C)(C)OC(=O)CNC(=O)c1nc[nH]c1C(=O)NCc1ccc(CNC(=O)OC(C)(C)C)cc1,-1.18
O=C(CN1C(=O)CC(c2ccco2)Sc2ccccc21)NCC1CCCO1 (stereo not given),1.27
CN1CCN(CCC2Oc3cc([N+](=O)[O-])ccc3NC2=O)CC1 (stereo not given),-0.78
Cc1ccc(C(=O)Nc2ccc(F)cc2)o1,1.48
COc1ccc(N/C(=C/[N+](=O)[O-])SC)cc1,-1.83
Cc1ccc(S(=O)(=O)Nc2c(NC3CCCCC3)c3ccccc3oc2=O)cc1C,0.16
COc1cccc(CN2CCN(Cc3nc(-c4cccs4)oc3C)CC2CCO)c1 (stereo not given),0.42
CCC(=O)NC(=S)Nc1ccc(NC(=O)c2ccc(Br)o2)cc1,1.41
O=c1[nH]c2ccccc2c(O)c1Cc1ccccc1,0.22
CC(=O)NCC(=O)OCC(=O)c1ccccc1,0.75
CC(=O)c1ccc(N2CCN(CC(=O)Nc3ccccc3N3CCOCC3)CC2)cc1,1.13
CC(=O)Nc1ccc(S(=O)(=O)N2CCC(C(=O)O)(c3ccccc3)CC2)cc1,-0.82
Cc1ccc2nc(SCC(=O)Nc3nonc3N)[nH]c2c1,-1.73
C=CCSc1nsc(N)n1,0.37
COc1ccc([N+](=O)[O-])cc1NC(=O)C1C2C=CC(C2)C1C(=O)O (stereo not given),-1.12
Cc1c(Cl)cccc1NC(=O)CSC(C)c1nc2ccccc2c(=O)[nH]1 (stereo not given),0.05
Cc1[nH]c2ccc(C(=O)N3CCN(C)CC3)cc2c1C,0
CC(NC(=O)CN1CCN(c2cccc(Cl)c2)CC1)c1ccccc1 (stereo not given),-0.28
Cc1onc(-c2ccccc2)c1C(=O)Nc1ccnn1C1CCCCC1,-0.02
COc1cccc2cc(C(=O)Nc3cccc(C)n3)c(=O)oc12,1.11
# Remaining list, next part:
SMILES,Kir21 inh
Cc1ccc(S(C)(=O)=O)cc1S(=O)(=O)Nc1ccccc1,-0.55
CCCCC(=O)NC(Nc1cc(C)ccn1)(C(=O)OCC)C(F)(F)F (stereo not given),0.07
COc1ccc(S(=O)(=O)N(CC(=O)NC2CC2)c2ccc(C)cc2)cc1,1.73
COc1cc2[nH]c(=S)nc(NCc3cccnc3)c2cc1OC,-0.98
COc1ccc(OC)c(NC(=O)CSc2nnc(-c3ccco3)n2-c2ccc(C(=O)O)cc2)c1,-0.46
CCOc1ccc(NC(=S)N2CCC(NC(=O)c3ccccc3C)CC2)cc1,-0.01
CCOc1ccc(OCC)c(NC(=O)CSc2nnc(-c3cccnc3)o2)c1,-0.04
O=C(Nc1ccc2oc(Cc3ccc(Cl)cc3)nc2c1)c1cccnc1,-0.26
CC1CCc2c(sc3ncnc(NCc4cccnc4)c23)C1 (stereo not given),0.41
CCOc1ccc(CN2CCNC(=O)C2CC(=O)NCc2csc(C)n2)cc1 (stereo not given),0.22
CCC(=O)n1nc(-c2ccc(Cl)cc2)nc1NCc1ccccc1,1.51
CCOC(=O)N1CCN(C(=O)CN(C2CCCCC2)S(=O)(=O)c2ccc(F)cc2)CC1,1.93
CC1CCN(C(=O)Cn2nnc(-c3ccc(N)cc3)n2)CC1,-1.55
C/C(CC(=O)N1CCCC1)=N\NC(=O)c1cc2ccccc2cc1O,1.48
COc1ccc(S(=O)(=O)N(C)CC(=O)Nc2cccc(C(C)=O)c2)cc1,-1.71
CC1CCCCN1Cc1ccc(N(C)C)cc1 (stereo not given),-0.01
O=C(c1ccc([N+](=O)[O-])cc1)N(C1=NCCCCS1)c1ccccc1,-0.53
CCN(Cc1ccccc1)S(=O)(=O)c1csc(C(N)=O)c1,-2.52
COc1cccc(N2CCN(c3ccc4nnc(CCC(=O)Nc5cc(C)ccn5)n4n3)CC2)c1,-0.22
C[N+](C)(C)CCCCCCC(=O)/C=N/O,-2.47
CCn1c(SCC(=O)Nc2cccc(OC)c2)nnc1-c1ccc(Cl)cc1,1.5
CS(=O)(=O)N1CCCC(C(=O)Nc2ccc(Br)cc2F)C1 (stereo not given),-0.21
COc1ccc(C2C3C(=O)N(N(C)c4ncc(C(F)(F)F)cc4Cl)C(=O)C3ON2C)cc1 (stereo not given),0.76
COc1ccc(CNS(=O)(=O)c2c(C(=O)N3CCCCC3)c(C)n(C)c2C)cc1,2.42
Cc1ccc(-c2ccc(/C=N/NC(=O)CN3CCOCC3)o2)cc1[N+](=O)[O-],-0.52

# Reprinted at random: 3 compounds from above
SMILES,Kir21 inh
CNC(=O)C1CCC(=O)N1Cc1ccccc1Cl (stereo not given),-0.28
Cc1onc(-c2ccccc2)c1C(=O)Nc1ccnn1C1CCCCC1,-0.02
CC(=O)Nc1ccc(S(=O)(=O)N2CCC(C(=O)O)(c3ccccc3)CC2)cc1,-0.82

# The results go on:
SMILES,Kir21 inh
CC(C)CNC(=S)Nc1ccccc1F,1.16
CN1CCN(c2ccc(NC(=O)c3ccccc3)cc2)CC1,0.38
COc1ccc(/C(N)=N/OC(=O)Cc2ccccc2OC)cc1,-2.06
COc1ccccc1NS(=O)(=O)c1ccc2oc(=S)[nH]c2c1,1.97
C/C(=N\NC(=O)C1CC1)c1ccc(Cl)c(Cl)c1,1.89
Cc1ccc2[nH]c(=O)c(-c3nc4ccccn4c3NCc3ccco3)cc2c1,0.02
CCCCOc1cccc(C(=O)NC(=S)Nc2cccnc2)c1,0.15
CCOc1cc(-c2noc(-c3ccncc3)n2)cc(Br)c1OC,-1.5
COc1ccc(C(CC(=O)N2CCCCC2)c2c(OC)cc(OC)c3c(-c4ccccc4)cc(=O)oc23)cc1 (stereo not given),0.26
CCOC(=O)c1csc(NC(=O)Nc2cccc(Cl)c2)n1,-1.79
COC(=O)c1ccc(NC(=O)c2cccc(C)c2)cc1,-1.64
COc1ccc(C2=C(Nc3ccccc3)c3ccccc3C2=O)cc1,-2.13
COc1cc(Br)cc2cc(C(=O)OC3CCN(C)CC3)c(=O)oc12,-2.55
COc1ccc(-c2cc(=O)c3c(OC)c(OC)c(OC)c(OC)c3o2)cc1OC,0
CCOC(=O)N1CCN(c2c(N3CCc4ccccc43)c(=O)c2=O)CC1,0.53
COc1ccc(-n2c(C)nc3cc(C(=O)NCCN4CCOCC4)ccc32)cc1,-2.16
Cc1c(S(=O)(=O)Nc2cccc(Cl)c2)c(=O)n(C)c(=O)n1C,-0.49
CNC(=O)c1cc(C(=O)c2ccc(Cl)cc2)c(Br)[nH]1,3.16
O=C(O)COc1ccc2c(c1)O/C(=C\c1cccs1)C2=O,-0.92
O=C1CC(NCC2CCCO2)C(=O)N1c1ccc(F)cc1 (stereo not given),-0.34
COc1cc(NC(=S)NC(=O)c2ccc(C)cc2C)ccc1NC(=O)c1cccs1,0.52
O=C(COc1ccc(-n2cnnn2)cc1)Nc1ccccc1Cl,-5.31
O=C(OCc1ccc(F)cc1)c1cc2ccccc2cc1O,-0.12
CCN1CCN(C(=O)CCNC(=O)Cn2ccc3ccccc3c2=O)CC1,-1.25
COc1ccc2nc(N/C(N)=N/C(=S)Nc3ccc(C)c(C)c3)nc(C)c2c1,-1.25

# Rewritten bar-delimited: entries from further up.
Compound | Kir21 inh
CNC(=O)c1cc(C(=O)c2ccc(Cl)cc2)c(Br)[nH]1 | 3.16
O=C(O)COc1ccc2c(c1)O/C(=C\c1cccs1)C2=O | -0.92
O=C1CC(NCC2CCCO2)C(=O)N1c1ccc(F)cc1 (stereo not given) | -0.34
COc1cc(NC(=S)NC(=O)c2ccc(C)cc2C)ccc1NC(=O)c1cccs1 | 0.52
O=C(COc1ccc(-n2cnnn2)cc1)Nc1ccccc1Cl | -5.31

# Next structures
SMILES,Kir21 inh
CCOC(=O)c1ccc(NS(=O)(=O)c2cn(C)cn2)cc1,-0.17
CC1=C(C(N)=O)C(c2ccccn2)n2nc(SCc3ccccc3Cl)nc2N1 (stereo not given),0.68
CCCCC1NC(=S)N(C2CCCCC2)C1=O (stereo not given),-0.03
CCN(CC)CC(=O)Nc1nc(-c2ccc(Cl)cc2)cs1,-0.08
COc1ccc(-c2noc(-c3cc(C)cc(C)c3)n2)cc1OC,2.32
CC(Oc1ccccc1F)C(=O)NNC(=O)c1ccc(F)c(S(=O)(=O)N2CCOCC2)c1 (stereo not given),-0.65
Cc1ccc(NC(=O)c2cc(-n3cnnc3)ccc2Cl)cc1,1.59
CC(=O)c1ccc(S(=O)(=O)N2CCC3(CC2)OCCO3)cc1,0.51
O=C(NCc1ccc(F)cc1)Nc1ccccc1,-0.9
COc1ccc(S(=O)(=O)N2CCCC2C(=O)Nc2nccs2)cc1 (stereo not given),-0.92
CCOC(=O)Cn1nnnc1CN(CCc1ccccc1)Cc1cc2cc(CC)ccc2[nH]c1=O,1.53

# Looked up above.
# For Kir21 inh, `CCOc1ccc(NC(=S)N2CCCN(Cc3cccc(Cl)c3)C2)cc1` is entered as 1.08
# For Kir21 inh, `CCC(=O)Nc1ccc(NC(=O)CCc2ccccc2)cn1` is entered as 1.18
# For Kir21 inh, `CCC(=O)n1nc(-c2ccc(Cl)cc2)nc1NCc1ccccc1` is entered as 1.51

# Screens: PubChem BioAssay, Johns Hopkins Ion Channel Center

# The list is partial; most or all hits stand in other tables.
